VDR inhibitor: vitamin D3 receptor (human) inhibition; actives 0.93% (n = 400,000); Potency, µM, for the others: max response, negative = inhibition, hits mostly inhibitors; VDR-SRC2-3 peptide fluorescence polarization, 2 h; P11473; active = well fitted inhibition curve with a large enough effect; inconclusive = small, poorly fitted or top-dose-only effect, or another doubt; inactive = no such curve, though single readings can be large or run the other way; note: series mostly up to about 120 µM
Target sequence (P11473 whole entry, looked up): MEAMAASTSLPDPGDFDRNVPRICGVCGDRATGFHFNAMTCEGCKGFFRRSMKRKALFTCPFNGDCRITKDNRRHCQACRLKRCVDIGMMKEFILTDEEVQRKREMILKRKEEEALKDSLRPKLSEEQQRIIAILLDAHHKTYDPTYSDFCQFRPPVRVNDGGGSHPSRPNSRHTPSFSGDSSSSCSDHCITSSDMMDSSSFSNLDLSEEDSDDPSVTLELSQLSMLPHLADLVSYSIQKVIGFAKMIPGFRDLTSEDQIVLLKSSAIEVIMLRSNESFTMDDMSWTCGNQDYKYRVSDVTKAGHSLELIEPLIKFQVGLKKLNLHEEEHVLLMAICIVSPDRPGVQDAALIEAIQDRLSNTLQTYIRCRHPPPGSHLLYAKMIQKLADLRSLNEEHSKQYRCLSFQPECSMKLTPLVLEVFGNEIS
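Signal is fluorescence polarization, reporting how far test compounds block the interaction of VDR with the SRC2-3 coregulator peptide after a 2 h room-temperature incubation.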
The depositor's hits bear a star; ? = inconclusive; [ ] = dose if it differs, or a comment. % is set by controls: 0 for no effect and ±100 for the full control effect; potency is the fitted concentration of half-maximal effect. The list is partial (hit frequency here may not be typical).

Molecule,VDR inhibitor
C=CCSc1nc2ccccc2n1S(=O)(=O)c1ccc(C)cc1,-5%
O=C1C2C3C=CC(CC3)C2C(=O)N1c1nccs1 (stereo unspecified),-3%
CCNC(=O)c1oc2c(c1C)C(=O)CC(C)(C)C2,-12%
Cn1c(C(=O)NCCc2c[nH]c3ccccc23)cc2sccc21,-8%
Nc1ccccc1C(=O)NC1CCCCNC1=O (stereo unspecified),0%
COc1ccc2ccccc2c1/C=N/NC(=O)c1ccccc1F,-9%
CC(NC(=O)CN(C)S(=O)(=O)c1cnc[nH]1)c1ccccc1 (stereo unspecified),-16%
CCN(C(=O)COC(=O)c1ccc([N+](=O)[O-])o1)C1CCCCC1,1%
Cc1ccc(CCNC(=O)CC(C)CC2=NS(=O)(=O)c3ccccc3N2)cc1 (stereo unspecified),-8%
COc1ccc(CC(=O)NCc2cccs2)cc1OC,-5%
CN(C)CCCN(C(=O)/C=C/c1cccs1)c1nc2c(F)cccc2s1,10%
Cc1ccc(NC(=O)Cc2cccs2)cc1Cl,-2%
O=C(CCc1nnc(-c2ccccc2)o1)NC1CCCCC1,-18%
N/C(=N\O)c1ccc([N+](=O)[O-])s1,-3%
O=C(c1cnc2n(c1=O)CCS2)N(C1CCCCC1)C1CCCCC1,-5%
COc1ccc(Br)cc1CNC(=O)CCNC(=O)Cn1ccc2ccccc2c1=O,-10%
CCN(CC)CCN1C(=O)c2ccccc2NC1c1ccc(F)cc1 (stereo unspecified),-14%
COC(=O)c1ccccc1NC(=O)C1CC=CCC1C(=O)O (stereo unspecified),-6%
COc1ccc(-c2c(C#Cc3ccc(N(C)C)cc3)c3ccccc3n2C)cc1,-11%
CC(=O)c1ccccc1NC(=O)COC(=O)c1cc2ccccc2[nH]1,16%

Look-ups from the entries so far:
VDR inhibitor with N/C(=N\O)c1ccc([N+](=O)[O-])s1 = -3%
VDR inhibitor with O=C(CCc1nnc(-c2ccccc2)o1)NC1CCCCC1 = -18%

The main list resumes, repeating the 5 entries before the break.
Molecule,VDR inhibitor
COc1ccc(Br)cc1CNC(=O)CCNC(=O)Cn1ccc2ccccc2c1=O,-10%
CCN(CC)CCN1C(=O)c2ccccc2NC1c1ccc(F)cc1 (stereo unspecified),-14%
COC(=O)c1ccccc1NC(=O)C1CC=CCC1C(=O)O (stereo unspecified),-6%
COc1ccc(-c2c(C#Cc3ccc(N(C)C)cc3)c3ccccc3n2C)cc1,-11%
CC(=O)c1ccccc1NC(=O)COC(=O)c1cc2ccccc2[nH]1,16%
CC(=O)c1sc2nc(SCC(=O)N3CCCCC3)[nH]c(=O)c2c1C,38%[activator]
CCC(=Nc1ccccc1)C1=C(O)CCCC1=O,7%
CS(=O)(=O)Nc1ccccc1C(=O)Nc1cc(Cl)cc(Cl)c1,11%
Cc1ccc(N2CCn3c2nc2c3c(=O)n(CCCc3ccccc3)c(=O)n2C)cc1,-5%
Cc1cc(C)c(C)c(S(=O)(=O)N2CCC(C(=O)OCC(=O)N3c4ccccc4NC(=O)C3(C)C)CC2)c1C,4%
COc1ccc2c(c1)C(=O)C(=O)N2,-20%
COc1ccc(C2NC(=O)Cc3cc(OC)c(OC)cc32)cc1OC (stereo unspecified),-14%
CN(c1ccccc1)S(=O)(=O)c1cccc(NC(=O)CC(C)(C)C)c1,-3%
Cc1ccc(NC(=O)c2ccc(NC(=O)CCS(=O)(=O)c3cccs3)cc2)cc1F,-5%
COc1cc(C2C(C#N)=C(N)Oc3cc(C)oc(=O)c32)ccc1OC(=O)N1CCOCC1 (stereo unspecified),3%
CC(OC(=O)Cc1coc2ccc3ccccc3c12)C(=O)NC(N)=O (stereo unspecified),-17%
CCOc1ccc(N2CC(C)Cn3c2nc2c3c(=O)n(Cc3c(F)cccc3Cl)c(=O)n2C)cc1 (stereo unspecified),7%
Cc1nn(Cc2ccccc2)c(C)c1NC(=O)c1cc(-c2ccco2)on1,1%
O=C1CC(c2ccco2)Cc2nc(N3CCc4ccccc4C3)ncc21 (stereo unspecified),-7%
COc1ccc(N2CCN(CC(O)COc3ccc(C(C)C)c(C)c3)CC2)cc1 (stereo unspecified),-6%
CCN1CCN(CC(=O)N2c3ccccc3Sc3ccccc32)CC1,7%
CCn1c(SC(C)C(=O)O)nnc1-c1cccnc1 (stereo unspecified),-6%
O=C(NCC(=O)N(c1ccccc1)C(C(=O)NCC1CCCO1)c1ccccc1)c1ccco1 (stereo unspecified),-19%
CC(NC(=O)COc1ccc(S(=O)(=O)N2CCCC2)cc1)c1ccccc1 (stereo unspecified),-14%
Nc1c(C(=O)c2ccc(Cl)cc2)sc2nc3c(cc12)CCC3,17%

An excerpt from above in order of length of the SMILES, high to low:
Molecule,VDR inhibitor
Cc1ccc(N2CCn3c2nc2c3c(=O)n(CCCc3ccccc3)c(=O)n2C)cc1,-5%
COc1ccc(N2CCN(CC(O)COc3ccc(C(C)C)c(C)c3)CC2)cc1 (stereo unspecified),-6%
CC(=O)c1sc2nc(SCC(=O)N3CCCCC3)[nH]c(=O)c2c1C,38%[activator]
CC(OC(=O)Cc1coc2ccc3ccccc3c12)C(=O)NC(N)=O (stereo unspecified),-17%
O=C1CC(c2ccco2)Cc2nc(N3CCc4ccccc4C3)ncc21 (stereo unspecified),-7%
Nc1c(C(=O)c2ccc(Cl)cc2)sc2nc3c(cc12)CCC3,17%

Next part.
Molecule,VDR inhibitor
CC(OC(=O)CCN1C(=O)C2CC=CCC2C1=O)C(=O)Nc1ccc(F)cc1 (stereo unspecified),9%
Cc1cccc(CC(=O)NC2CC(=O)N(c3cccc(F)c3)C2)c1 (stereo unspecified),10%
O=C(O)CCCCCNS(=O)(=O)c1ccc2c(c1)OCCO2,-13%
Cc1nonc1CN(C)C(=O)CC1C(=O)NCCN1Cc1ccc(F)c(F)c1 (stereo unspecified),7%
N#Cc1sc(=O)[nH]c1Cl,79µM*
CN(C(=O)c1cccnc1)c1nc(-c2ccccc2)cs1,19%
COc1ccc(OC)c(NC(=O)Cn2cnc3ccc(S(=O)(=O)N4CCC(C)CC4)cc3c2=O)c1,21%
Cn1c(CSCC(=O)Nc2ccccc2)nnc1SCc1ccccc1,10%
COCCNc1nc2c(c(=O)n(C)c(=O)n2C)n1Cc1cccc(C)c1,4%
Cc1cc(-c2nc3ncccc3o2)ccc1NC(=O)COc1cc(C)c(Cl)c(C)c1,11%
CCOC(=O)c1c(C)nc2sc3c(c2c1-c1ccc(OC)cc1)NC(c1ccc(OC)cc1)NC3=O (stereo unspecified),-7%
CCOC(=O)C1CCN(c2ncnc3c2oc2ccc(Br)cc23)CC1,-15%
CCn1c2c(c3cc(C(=O)O)ccc31)CCCC2=O,-10%
COc1ccccc1NC(=O)N1CCC(C(=O)c2ccc(Cl)cc2)CC1,4%
Cc1cc(=O)oc2c(CN3CC(C)OC(C)C3)c(O)c(Cl)cc12 (stereo unspecified),9%
CCN(CC)CCNC(C(=O)Nc1cccc(C(C)=O)c1)c1ccccc1 (stereo unspecified),-9%
C[C@H](NC(=O)Cn1cncn1)c1ccccc1,-1%
COc1ccc(NC(=O)c2cccc(N3CCCS3(=O)=O)c2)cc1,9%
Cc1ccc(CSc2nnc(Cn3c(=O)sc4ccccc43)n2C)cc1,-16%
O=C(/C=C/c1ccccc1O)c1ccccc1,28µM*

Next section:
smiles	VDR inhibitor
O=C(NCCS(=O)(=O)c1ccc(Br)cc1)c1c(F)cccc1F	-2%
CCN(CC)c1ccc(NC(=O)COc2ccccc2C#N)cc1S(=O)(=O)Nc1ccc(OC)cc1	8%
CCOC(=O)CCc1c(C)c2ccc(OC3CCCCC3=O)c(C)c2oc1=O (stereo unspecified)	-14%
Cc1ccc(CNS(=O)(=O)c2cc3c4c(c2)CCN4C(=O)CC3)cc1	-1%
Cc1cc(C)cc(NC2=C(N)C(=O)c3ccccc3C2=O)c1	89µM*
COc1ccccc1CNS(=O)(=O)c1c(C(=O)N2CCC(C)CC2)c(C)n(C)c1C	8%
CC(C)C(NC(=O)c1ccccc1)C(=O)NC1=NCCS1 (stereo unspecified)	13%
COc1ccc(CC(=O)NCC2CCCCC2)cc1OC	-15%
COc1ccc(CCNC(=O)CSc2nc3nc(C)c(Cc4ccc(C)cc4)c(C)n3n2)cc1OC	3%
COc1cc(C)c(C(C)C)cc1S(=O)(=O)n1cnc(C)c1	1%
COc1cccc(CN2CCN(Cc3ccc(OC)c(OC)c3)CC2CCO)c1 (stereo unspecified)	-1%
Cc1ccc[n+](CC(=O)Nc2cc(C(F)(F)F)ccc2N2CCOCC2)c1	-3%
CN(C(=O)COC(=O)C(Cc1ccccc1)NC(=O)c1ccccc1)c1ccccc1 (stereo unspecified)	1%
CC(C)NC(=O)/C(C#N)=C\c1ccc(N(C)C)c(Br)c1	-22%
Cc1cc(=O)[nH]c(SCC(=O)Nc2ccc(Br)cc2)n1	2%
CCOc1ccc(N(CC(=O)NC2CCCC2)C(=O)CSc2nnc(COc3ccccc3)o2)cc1	8%
Cc1ccc(CNC(=O)COC(=O)CCOc2ccc(C)cc2)cc1	3%
CCOC(=O)c1sc(NC(=O)CCN2CCC(C)CC2)c(C(=O)OCC)c1C	-15%
CC(C)CNC(=S)Nc1ccc(S(N)(=O)=O)cc1	-14%
O=C(N/N=C/c1ccc(Br)s1)c1ccncc1	-9%

Continuation:
smiles	VDR inhibitor
Cc1ccc2c(c1)NC(=O)c1cccnc1N2	-4%
O=C(CCNS(=O)(=O)c1ccc(Br)cc1)NCc1ccc(Cl)cc1	-9%
COc1ccc(C2=CC(=O)CC(c3ccccc3)C2)cc1 (stereo unspecified)	-6%
Cc1csc(NC(=O)c2ccc(OCC3CCCO3)cc2)n1 (stereo unspecified)	-9%
Cc1ccc(C(=O)O/N=C/c2c(N3CCOCC3)n(C)c3ccccc23)cc1	13%
CC(C)c1cc(=O)[nH]c(N2CCN(Cc3ccc4c(c3)OCO4)CC2)n1	-15%
Cn1c(Cn2c(=O)sc3ccccc32)nnc1SCC(=O)N1CCCCCC1	-16%
C/C(N)=C(/C#N)C(=O)COC(=O)C1CCN(S(=O)(=O)c2cccs2)CC1	-13%
O=C(c1cccc(Cl)c1)N1CCN(c2ncnc3c2cnn3-c2ccccc2)CC1	9%
CCOC(=O)C1(Cc2cccc(OC)c2)CCCN(C(=O)CNC(C)=O)C1 (stereo unspecified)	18%
CC(Oc1ccc2ccc(=O)oc2c1)C(=O)c1ccccc1 (stereo unspecified)	-10%
Cc1ccc([N+](=O)[O-])c(OCCCN2C(=O)NC(C)(C)C2=O)c1	4%
CCC(=O)N1CCc2cc(Br)cc(S(=O)(=O)NCCc3ccccc3Cl)c21	-6%
COc1cccc(/C=C/C(=O)NNC(=O)c2ccccc2)c1OC	-1%
Cc1onc(-c2ccccc2Cl)c1C(=O)c1ccccc1	8%
O=C1c2ccccc2NC(c2ccc(O)cc2)N1c1ccccc1 (stereo unspecified)	-1%
CC(C)NS(=O)(=O)c1ccc(OCC(=O)N(C)Cc2ccccc2)cc1	12%
O=C(NC(=S)Nc1ccc(Cl)cn1)c1cccs1	19%
C=C(CC1([C@@H](NP(=O)(c2ccccc2)c2ccccc2)[C@H]2C[C@@H]2CCCC)CC1)c1ccccc1	-13%
C=CCNC(=S)Nc1ccc(Cl)c(S(=O)(=O)N2CCOCC2)c1	-2%

More records:
smiles	VDR inhibitor
O=C1c2ccccc2C(=O)c2c1oc(C(F)(F)F)c2C(=O)c1ccccc1	-10%
O=C(CSc1nnc(NC(=O)C2CCC2)s1)Nc1ccccc1	13%
Clc1ccc(CSc2nnc(-c3cccnc3)n2Cc2ccco2)c(Cl)c1	-13%
COc1ccc(NC(=O)CN(C)C(=O)c2ccccc2OCC(=O)Nc2cccc(C(F)(F)F)c2)cc1	-2%
CCOc1cc(CNC)ccc1OCC(=O)NC(C)(C)C	-5%
Cc1csc(SCc2ccccc2C(=O)O)n1	12%
Cc1ccc(NC(=S)NNC(=S)Nc2ccc(C)cc2)cc1	79µM*
CC1=C(C(=O)Nc2ccc(Cl)cc2)C(c2cccs2)n2nc(SCc3cccc(Cl)c3)nc2N1 (stereo unspecified)	2%
COc1ccccc1NC(=O)C(C)NC(c1ccccc1)c1ccccc1 (stereo unspecified)	1%
CN(Cc1ccccc1)C(=O)CSc1nc2c(c(C(F)(F)F)n1)CCc1ccccc1-2	-8%
CC(=O)N(C)c1ccc(N=Cc2cc3c(cc2[N+](=O)[O-])OCO3)cc1	7%
C/C(=N\NC(=O)c1c([N+](=O)[O-])c(C)nn1C)c1ccc(NC(=O)C2CCCC2)cc1	-4%
O=C(C=Cc1cccnc1)c1ccccc1	?
CC[N+](CC)(CC#Cc1ccccc1)CC#Cc1ccccc1	3%
O=C(NCC(=O)N(c1cccc(F)c1)C(C(=O)NCC1CCCO1)c1ccccc1)c1ccco1 (stereo unspecified)	-11%
O=C(NCCCN1CCN(c2ccccc2)CC1)c1nnc(Cc2ccc(F)cc2)o1	10%
O=C(CSCc1ccc([N+](=O)[O-])cc1)N/N=C/c1ccncc1	10%
COc1ccc(C)cc1Nc1n[n+](-c2ccccc2)c(-c2c(Cl)cccc2Cl)s1	-23%
Cc1ccccc1-c1nnc(NC(=O)c2ccc(N3C(=O)CCC3=O)cc2)s1	9%
COc1ccc(-c2ccc3c(N)c(C(=O)c4cccc(OC)c4)sc3n2)cc1	16%

(cont.)
smiles	VDR inhibitor
CCN1C[C@@H]2[C@@H]3C(=O)N(C)C(=O)[C@@H]3[C@](C)(C1=O)N2C(=O)c1ccccc1	-13%
Cn1c(N)c(C(=O)COC(=O)CSc2cccc3cccc(Cl)c23)c(=O)n(C)c1=O	5%
CC(C)CCC1(C)NC(=O)N(CC(=O)NCC(=O)Nc2ccc(F)c(F)c2F)C1=O (stereo unspecified)	9%
CCCCN(CC)c1nc(C)nc2c1c(C)c(C)n2-c1c(C)cc(C)cc1C	-1%

High-throughput results from PubChem BioAssay.
